# Calb biofilm kill = clotrimazole potentiators killing C. albicans biofilm, primary screen, 4-compound mixtures | C. albicans biofilm persisters + clotrimazole, fluorescence viability; primary screen in compound mixtures of four per well | inhibition, % at 7.6 µM | 120,000 tested, 0.02% active | AID 1242, 2008;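 active = inhibition above 30.3% in the primary screen of four-compound pools, then above 30% when the compound was retested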;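 note: compounds exposed to preformed 24 h biofilms for 48 h; the number belongs to the whole pool; some results filed as inactive read as strong as hits; inactives centre near 12; 0% = biofilm with clotrimazole alone and 100% = kill control; retested singly at about 60 µM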
#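 Test system: C. albicans biofilms. Buffer or medium: RPMI/MOPS medium, pH 7.0. Timing: 48 h compound exposure at 37 °C. Technique: Alamar Blue fluorescence. Evaluation: percent inhibition of biofilm viability.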
# Active calls of the source: *.
SMILES,Calb biofilm kill
CCn1c(O)c(N=NC(=O)c2cccc(S(=O)(=O)N3CCCCC3)c2)c2ccccc21,12
NC(=O)N=Nc1c(O)[nH]c2c(Br)cc(Br)cc12,-6
O=C(NNS(=O)(=O)c1ccc(F)cc1)C1CCN(Cc2cccc(F)c2)CC1,18
Cc1cc2cc3c(cc2nc1SCc1ccc(C(=O)O)cc1)OCCO3,12
C/C(=N\OCC(=O)Nn1c(C)nc2ccccc2c1=O)c1ccccc1,9
CCc1ccccc1NC(=O)Cn1cccc1C1=NC(c2ccccc2)CO1 (centres undefined),19
COc1cc(C(=O)O/N=C(\N)c2ccc([N+](=O)[O-])cc2)cc(OC)c1OC,22
Cc1ccc(NC(=O)c2ccc3ncsc3c2)cc1S(=O)(=O)N(C)C,7
CCN(CC)c1ccc(NC(=O)Cn2ncc3c(C)n(Cc4ccccc4F)c(C)c3c2=O)c(C)c1,7
CN(C)C(CNC(=O)c1ccc2c(c1)S(=O)(=O)c1ccccc1C2=O)c1ccco1 (centres undefined),18
Nc1nc(NCC2CCCO2)nc(Nc2cccc(F)c2)c1[N+](=O)[O-] (centres undefined),1
Cc1ccc([N+](=O)[O-])cc1NC(=O)Nc1cccc(F)c1,15
COc1ccc(CNC(=O)CCSCc2ccc(C)cc2)cc1,-2
CC(=O)Nc1ccc(NC(=O)C(Sc2ccccc2)c2ccccc2)cc1 (centres undefined),14
COc1cc2c(c(O)c1OC)-c1c(cc(OC)c(OC)c1OC)C[C@@H](C)[C@@H](C)C2,4
Cc1cc(C(=O)OCC(=O)Nc2cccnc2Cl)c2ccccc2n1,8
Cc1ccc(CCNC(=O)C2CC(c3cccc(F)c3)=NO2)cc1 (centres undefined),0
Cc1ccc(S(=O)(=O)NC(=O)Nc2cc(C)on2)cc1,13
Cc1ccccc1C(=O)NC(=S)Nc1ccccc1[N+](=O)[O-],1
CCCc1nc2sc3ccccc3c(=O)c2c(=O)n1Cc1ccc(OC)cc1,14
Cc1ccc(C(C(=O)NC(C)(C)C)N(Cc2ccccc2)C(=O)c2snc(C(N)=O)c2N)o1 (centres undefined),16
CC1(C(=O)OCC(=O)NC(=O)NCc2ccccc2)CC1(Cl)Cl (centres undefined),15
Cc1cccc(C)c1OCC(O)CN1CCN(c2ccccc2)CC1 (centres undefined),9
CC1CC2C3CCC4=CC(=O)C=CC4(C)C3(F)C(O)CC2(C)C1(O)C(=O)CO (centres undefined),27
Cc1cc(/C=N/NC(=O)CC#N)c(C)n1-c1ccc([N+](=O)[O-])cc1,1
COc1ccc(-c2cc(C(=O)NN)[nH]n2)cc1,-1
O=C(N/N=C\c1coc2ccccc2c1=O)c1ccco1,10
O=[N+]([O-])c1ncn(Cc2ccccc2Cl)n1,9
COc1cc2c(cc1OC)CN(C(=S)Nc1ccc(Cl)cc1)CC2,27
CCCCSc1nnc(CNC(=O)C23CC4CC(CC(C4)C2)C3)n1Cc1ccccc1,9
C/C(=N\NC1=NCCN1)c1ccc(Cl)cc1,4
O=[N+]([O-])c1cc(S(=O)(=O)N2CCCCCC2)ccc1Cl,12
COc1cccc2sc(Nc3nc(-c4cc5ccccc5oc4=O)cs3)nc12,11
CSCCC(NC(=O)c1ccc(Cl)cc1Cl)C(=O)OCC(N)=O (centres undefined),20
O=c1[nH]c2ccccc2nc1/C=C(\O)C(F)F,21
CCN(CC)C(=O)c1cc(C(C)(C)C)c(O)c(C(C)(C)C)c1,3
C/C(=N\Nc1ccccn1)c1ccc(C#N)cc1,20
O=C(O)CCCCCCCCCC[n+]1ccccc1,1
Cc1ccc(F)c(C2C3C=CCC(c4cccc(-c5ccc(N(C)C)cc5)c4)C3C(=O)N2Cc2ccccc2)c1 (centres undefined),17
O=C(Cn1nc(C(F)(F)F)cc1C1CC1)NCc1ccccc1F,10
COc1ccccc1C(CNC(=S)NCc1ccccc1)N1CCCC1 (centres undefined),16
COC(=O)CCCC1=CC2=C(c3ccccc3)C(=O)C(C)(OC(=O)C3CCCC3)C(=O)C2=CN1Cc1ccc(OC)cc1 (centres undefined),14
COC(=O)c1ccccc1NC(=O)CCc1ccccc1,12
Cn1cc(NC(=O)c2cc(NC(=O)c3cc(NC=O)cn3C)cn2C)cc1C(=O)NCCC(=N)N,18
O=c1[nH]nc(SCc2ccccc2)c(=O)[nH]1,12
Cc1ccc(NC(=S)N(Cc2ccco2)C(C)c2cccs2)cc1 (centres undefined),18
CC(C)(C)NC(=O)CN(c1cccc([N+](=O)[O-])c1)S(=O)(=O)c1ccccc1,21
O=C(OCc1cc(=O)n2c(n1)sc1ccccc12)c1ccc(O)cc1,8
CC(C)=C1C2CCC1C1C(=O)N(NC(=O)c3ccco3)C(=O)C21 (centres undefined),10
COc1ccc(C)cc1NC(=O)C(=O)N/N=C(\C)CC(=O)Nc1cccnc1,14

# (continued)
SMILES,Calb biofilm kill
CCOc1cc(S(=O)(=O)N2CCCC2)c(C)cc1C,3
Cc1cc(C)c2nc(Nc3nc(-c4ccccc4)cc(=O)[nH]3)nc(C)c2c1,30
COc1ccc(C(CC(=O)c2ccccc2)CC(=O)c2ccccc2)cc1OC,14
COc1ccc(Cl)cc1N(CC(=O)NC(C)(C)C)S(=O)(=O)c1ccc(C)c([N+](=O)[O-])c1,13
COc1cc(OC)cc(C(=O)NC(=S)Nc2nc(-c3cc4ccccc4o3)cs2)c1,19
COc1ccc(C(=O)COC(=O)CN2C(=O)C3C4C=CC(C5CC45)C3C2=O)cc1 (centres undefined),12
O=C(c1nc2ccccn2c1CNCCCn1nnc2ccccc21)N1CCOCC1,5
C/C(CC(=O)NC1CCCCCC1)=N\NC(=O)c1cnccn1,8
COc1ccc(NC(=O)c2ccccc2C(=O)N2CCCCC2)cc1,22
C/C(CC(=O)NC(C)C)=N\NC(=O)C(c1ccccc1)c1ccccc1,9
CCOC(=O)c1c(NC(=O)CCC(=O)N(CC)CC)sc2c1CC(C)(C)OC2,12
O=C1C2C(c3ccccc3)CC=CC2[C@H](c2ccc(C(F)(F)F)cc2)N1Cc1ccccc1 (some centres undefined),12
O=C(c1ccc(F)cc1)c1cn(Cc2ccc(F)cc2)c2cc3c(cc2c1=O)OCCO3,12
O=C(Nc1ccc(N=Nc2ccccc2)cc1)c1ccccc1Cl,12
Cc1nc(NC(C)(C)CO)c([N+](=O)[O-])cc1[N+](=O)[O-],7
Cc1ccc(NNC(=O)c2ccno2)c(C)c1,16
Cc1c(/C=N/NC(=O)c2cccnc2)cc(C#N)n1C,14
O=C(COC(=O)c1ccc(NS(=O)(=O)c2ccc(F)c(F)c2)cc1)NCC1CCCO1 (centres undefined),16
CC1CCCC(C)N1C(=O)COc1ccc(C(=O)Nc2ccccc2N2CCOCC2)cc1 (centres undefined),5
C/C(=N\NC(=O)CCCNc1ccccc1)c1ccncc1,20
COc1ccc(NC(=O)/C(C#N)=C/c2cc(C)n(-c3ccc(N4CCOCC4)c([N+](=O)[O-])c3)c2C)cc1,5
Cc1nccc(-c2cccc(N/N=C(\C#N)C(=O)c3ccccc3)c2)n1,15
COCCN(C(=O)C1CCCC1)c1c(N)n(Cc2ccccc2)c(=O)[nH]c1=O,7
Cc1ccc(S(=O)(=O)CCSc2ccc(C(F)(F)F)cn2)cc1,28
Cc1cc(C(=O)N2CCOCC2)c(C)o1,2
CCCc1nc2ccccc2c(C(=O)OC(C)C(=O)NCc2ccc3c(c2)OCO3)c1CC (centres undefined),11
O=C1S/C(=C\c2ccc(N3CCOCC3)o2)C(=O)N1c1ccccc1,4
COc1ccc(OC)c(C2Nc3c(Cl)ccc(C(=O)O)c3C3C=CCC32)c1 (centres undefined),13
Cc1cc(C)cc(NC(=O)COC(=O)c2n[nH]c3ccccc23)c1,13
CCOC(=O)c1nc(N)c(=O)n(-c2ccc(C)cc2)n1,10
CCOC(=O)C1CCCN(C(=O)COc2ccc(N(C)S(=O)(=O)c3ccc(F)cc3)cc2)C1 (centres undefined),20
NC(=O)CC[C@@H]1NC(=O)[C@H](Cc2ccc(O)cc2)NC(=O)c2cc([N+](=O)[O-])cc(F)c2OCC[C@@H](C(N)=O)NC1=O,13
COCCNC(=S)N(c1ccccc1)C(C)C,10
COc1ccc(C2CC(C)(c3ccc(OC)cc3OC)Nc3ccccc3N2)c(OC)c1 (centres undefined),11
O=C(O)CSc1nc2ccccc2n1-c1ccccc1,-1
COc1ccccc1[C@@H]1C(c2cccc(C)c2)=NN(c2ccccc2)[C@H]1C(=O)N1CCOC1=O,19
O/N=C/c1ccccc1OCc1ccccc1F,9
O=C(CSc1nnc(NC2CCCCC2)s1)Nc1ccc2c(c1)C(=O)c1ccccc1C2=O,14
CCOC(=O)C(=NC1CCS(=O)(=O)C1)NNc1ccc(Br)cc1 (centres undefined),11
Cc1ccnc(NC(=O)c2sc3cc(Cl)ccc3c2Cl)c1,30
CC1CN(C(=O)COC(=O)c2ccc(Cl)c(S(=O)(=O)N3CCCCC3)c2)CC(C)O1 (centres undefined),-3
Cc1ccc(S(=O)(=O)N2CCOCC2)cc1NC(=O)Cn1cc(C(F)(F)F)cc(Cl)c1=O,8
O=C(CN(c1ccccc1)S(=O)(=O)c1ccccc1[N+](=O)[O-])Nc1ccccc1C(=O)N1CCOCC1,6
O=S(=O)(c1ccc(Cl)c2ccccc12)N1CCCC1,6
c1ccc2c(NCC3CCCO3)nc(N3CCOCC3)nc2c1 (centres undefined),30
COc1ccc(Cl)cc1NC(=O)CNc1ccccc1N1CCOCC1,24
Cc1ccc(C)c(NC(=O)CS(=O)(=O)c2cccc3nsnc23)c1,5
Cc1cccc(C)c1OCc1nnc(SCC(=O)Nc2cccc(C(=O)N3CCOCC3)c2)n1C,18
CC(=O)N(C(C)=O)N1C(=O)c2cccc3c(N4CCOCC4)ccc(c23)C1=O,4
O=C(CC(C(=O)O)c1ccccc1)Nc1ccccc1 (centres undefined),-1

# Later entries.
SMILES,Calb biofilm kill
CSc1ncccc1C(=O)OCC(=O)c1ccc(Br)s1,22
Cc1ccc(NC(=S)N(CCN(C)C)Cc2cc3cc(C)cc(C)c3[nH]c2=O)cc1,0
Cc1cc(C)n(C(=O)COc2ccccc2[N+](=O)[O-])n1,7
O=[N+]([O-])c1ccc(NC(=S)NCc2ccncc2)cc1,18
O=C(O)CCn1cc(C(=O)O)c(-c2ccccc2)n1,6
Cc1cccc(NC(=O)c2ccc(S(=O)(=O)N(C)C)cc2)n1,6
O=C(Cc1ccccc1[N+](=O)[O-])N1CCc2ccccc2C1,17
Cc1ccc(C(=O)O/N=C2\CC3CCC2(C)C3(C)C)cc1 (centres undefined),13
Cc1ccc(Nc2nc(N)nc(CCl)n2)c(C)c1,29
N/C(=N\OC(=O)c1ccc(Cl)cc1Cl)c1ccncc1,8
COc1ccc(N2C(=O)CC(NNC(=O)c3ccco3)C2=O)cc1 (centres undefined),17
Cc1cccc(NC(=O)CCCn2cc([N+](=O)[O-])cn2)n1,6
CCOc1ccc(N(CC(=O)Nc2cccnc2)S(C)(=O)=O)cc1,5
CCN(CC)S(=O)(=O)c1ccc2c(c1)nc(CCC(=O)Nc1ccc3c(c1)OCO3)n2CC,12
Cc1cccc(-n2c(C)cc(/C=N\NC(=O)c3ccco3)c2C)c1,12
O=c1c2cc(Cl)cc(Cl)c2nc2n1CCC2,10
Clc1cccc(Cl)c1Cn1ccc(C2CC2)n1,7
Cc1csc(SCC(=O)Nc2ccccc2[N+](=O)[O-])n1,9
COc1ccc(Cn2c(O)c(C=Nc3ccc(O)cc3)c3ccccc3c2=O)cc1,12
CC(=O)Nc1ccc2c(c1)ncn2-c1ccc(C)cc1,10
Nc1nn(-c2cccc(F)n2)cc1-c1ccccc1,15
O=C(COC(=O)c1cn(-c2ccccc2)nc1-c1ccccc1)Nc1ncc(Cl)cc1Cl,19
O=C(/C=C/c1ccc(Br)o1)NC(c1ccccc1)c1ccccc1,8
CCc1n[nH]c(=S)n1/N=C/c1c(C)nn(-c2ccccc2)c1Cl,4
CCc1nc(Cl)c(C#N)c2c1CSC(C)(C)C2,30
S=C(NCCCNC(=S)Nc1ccccc1)Nc1ccccc1,12
O=c1c(-c2ccccc2)coc2cc(O)ccc12,-3
CCOc1ccc(CC(=N)C2=C(O)CC(C)(C)CC2=O)cc1OCC,13

# Structures shown so far that have fluorine (18):
SMILES,Calb biofilm kill
O=C(NNS(=O)(=O)c1ccc(F)cc1)C1CCN(Cc2cccc(F)c2)CC1,18
CCN(CC)c1ccc(NC(=O)Cn2ncc3c(C)n(Cc4ccccc4F)c(C)c3c2=O)c(C)c1,7
Nc1nc(NCC2CCCO2)nc(Nc2cccc(F)c2)c1[N+](=O)[O-] (centres undefined),1
Cc1ccc([N+](=O)[O-])cc1NC(=O)Nc1cccc(F)c1,15
Cc1ccc(CCNC(=O)C2CC(c3cccc(F)c3)=NO2)cc1 (centres undefined),0
CC1CC2C3CCC4=CC(=O)C=CC4(C)C3(F)C(O)CC2(C)C1(O)C(=O)CO (centres undefined),27
O=c1[nH]c2ccccc2nc1/C=C(\O)C(F)F,21
Cc1ccc(F)c(C2C3C=CCC(c4cccc(-c5ccc(N(C)C)cc5)c4)C3C(=O)N2Cc2ccccc2)c1 (centres undefined),17
O=C(Cn1nc(C(F)(F)F)cc1C1CC1)NCc1ccccc1F,10
O=C1C2C(c3ccccc3)CC=CC2[C@H](c2ccc(C(F)(F)F)cc2)N1Cc1ccccc1 (some centres undefined),12
O=C(c1ccc(F)cc1)c1cn(Cc2ccc(F)cc2)c2cc3c(cc2c1=O)OCCO3,12
O=C(COC(=O)c1ccc(NS(=O)(=O)c2ccc(F)c(F)c2)cc1)NCC1CCCO1 (centres undefined),16
Cc1ccc(S(=O)(=O)CCSc2ccc(C(F)(F)F)cn2)cc1,28
CCOC(=O)C1CCCN(C(=O)COc2ccc(N(C)S(=O)(=O)c3ccc(F)cc3)cc2)C1 (centres undefined),20
NC(=O)CC[C@@H]1NC(=O)[C@H](Cc2ccc(O)cc2)NC(=O)c2cc([N+](=O)[O-])cc(F)c2OCC[C@@H](C(N)=O)NC1=O,13
O/N=C/c1ccccc1OCc1ccccc1F,9
Cc1ccc(S(=O)(=O)N2CCOCC2)cc1NC(=O)Cn1cc(C(F)(F)F)cc(Cl)c1=O,8
Nc1nn(-c2cccc(F)n2)cc1-c1ccccc1,15

# Compound activity from PubChem BioAssay.

# An excerpt; count on the stated rates, not on these rows.
